Bioassay records as filed in PubChem.
CBX7 inh: CBX7 chromodomain binding inhibitors, primary screen, biochemical, AlphaScreen. Chromobox protein homolog 7 (Homo sapiens), O95931. AlphaScreen His6-CBX7 / biotin-H3K27me3 peptide binding; active compounds read low. normalised signal (fraction of DMSO) (concentration not given with the values). 66,000 compounds, 1.1% hits; in the data active = normalised signal below about 0.5;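 note: 100 nL library stock added to about 20 µL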
Target sequence (O95931 whole entry, looked up): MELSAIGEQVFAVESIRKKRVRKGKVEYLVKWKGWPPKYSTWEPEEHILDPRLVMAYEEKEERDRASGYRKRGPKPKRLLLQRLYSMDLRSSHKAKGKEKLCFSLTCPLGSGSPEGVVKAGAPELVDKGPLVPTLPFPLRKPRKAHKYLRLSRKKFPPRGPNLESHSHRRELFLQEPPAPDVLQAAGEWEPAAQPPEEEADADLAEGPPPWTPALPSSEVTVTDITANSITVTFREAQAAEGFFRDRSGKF
CBX7 inh z-score: second read-out of CBX7 inh, no call of its own (marks repeat the call); z-score; measured here: z-score of CBX7 signal; some inactives read as strong as hits; reference of the scale not given here;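 same signal on another scale; lower means less binding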
The depositor's hits bear a star; & = joins results of further samples. Not all compounds are listed. The share of hits here may be higher or lower than overall.

compound | CBX7 inh | CBX7 inh z-score
Cc1ccc(S(=O)(=O)N2CCCC(C(=O)NCc3ccccc3Cl)C2)cc1 (centres undefined) | 1 | -0.031
COc1ccccc1OCc1nc2ccccc2n1Cc1ccccc1Cl | 0.78 | -1.6
COc1cc(OC)c(NC(=O)CCc2nc3ccccc3[nH]2)cc1Cl | 1 | 1.4
CC1CCCCN1CCCNC(=O)C1CCN(c2nnc(-n3cccc3)s2)CC1 (centres undefined) | 2 | 11
CSCCC(Nc1ncnc2ccc(Br)cc12)C(=O)O (centres undefined) | 1.1 | 2.2
COc1cccc(CNC(=O)c2cc(Sc3ccc(C)cc3)nc3ccccc23)c1 | 1.3 | 6.2
CCC(=O)N1CCc2cc(S(=O)(=O)NC(C(=O)Nc3ccc(OC)c(OC)c3)C(C)C)ccc21 (centres undefined) | 0.96 | -0.77
Cc1cc(C)nc(Sc2nnc(-c3ccc(C)c(S(=O)(=O)N4CCOCC4)c3)c3ccccc23)n1 | 1 | 0.29
CCN1C(=O)c2ccccc2S(=O)c2ccc(C(=O)N3CCC(C)CC3)cc21 (centres undefined) | 0.99 | -0.38
CCc1noc(C)c1C(=O)Nc1nc(-c2cc(C)ccc2C)c(C)s1 | 0.98 | -0.57

(listing goes on)
compound | CBX7 inh | CBX7 inh z-score
O=C(Nc1nc(-c2ccncc2)cs1)c1cc(=O)c2ccccc2o1 | 1 | 0.92
CC(C)(C)NC(=O)Cn1c(-c2nonc2N)nc2ccccc21 | 0.99 | -0.25
COC(=O)CNS(=O)(=O)Nc1ccc(-c2nc3ccc(C)cc3s2)cc1 | 1.1 | 1.5
COc1ccc(OC)c(C(O)c2nccn2C)c1 (centres undefined) | 1 | 1
CCN1C(=O)c2ccccc2S(=O)c2ccc(C(=O)NCc3ccc(Cl)cc3)cc21 (centres undefined) | 0.94 | -1.5
CCN(c1cccc(C)c1)C(C(=O)Nc1ccc2c(c1)OCCO2)c1ccccc1 (centres undefined) | 0.7 | -6.4
O=C(Nc1ccccc1C(F)(F)F)c1cnc(N2CCN(c3ccccn3)CC2)c2ccccc12 | 1.1 | 4.1
CCOc1ccc2nc(N3CCC(C(=O)NC(C)c4ccc5c(c4)OCCO5)CC3)sc2c1 (centres undefined) | 0.96 | -0.055
CCOC(=O)N1CCC(Nc2c(NCCCN(C)Cc3ccccc3)c(=O)c2=O)CC1 | 0.8 | -2.4
CCc1ccccc1Nc1cc(C(=O)NCc2ccc(F)cc2)c2ccccc2n1 | 1.3 | 7.5

New compounds follow
compound | CBX7 inh | CBX7 inh z-score
Cc1ccccc1OCCn1c(=N)n(CC(C)C)c2ccccc21 | 0.94 | -1.6
Cc1cccc(-c2nnc(NC(=O)C(F)(F)F)s2)c1 | 1 | 0.0084
O=C(Cc1ccc(NC2=NC3CS(=O)(=O)CC3S2)cc1)N1CCc2ccccc2C1 (centres undefined) | 1 | 0.95
COc1cccc(-c2nn(C)c3sc(C(=O)N4CCN(C5CCCCC5)CC4)cc23)c1 | 0.81 | -5.4
COc1ccc(-c2nc3cc(C)ccn3c2NC(=O)c2cccc(OC)c2)cc1 | 0.95 | -1.7
Cc1ccc(CC(=O)Nc2nnc(C(C)C)s2)cc1 | 0.84 | -1.9
Cc1oc(-c2ccccc2)nc1C(=O)NCc1ccccc1Cl | 1 | 0.6
O=C(NCCc1c[nH]c2ccccc12)c1ccc2c(=O)n(CCc3ccccc3)c(=O)[nH]c2c1 | 0.93 | -2
Cc1ccc2c(c1)-c1c(cnn1CC(=O)N1CCc3ccccc3C1)CO2 | 0.92 | -1.4
COc1ccc(-c2nc(CN3CCC(C(=O)NCCc4ccccc4)CC3)c(C)o2)cc1 | 1.1 | 0.94

Next part
compound | CBX7 inh | CBX7 inh z-score
O=C(NC1CC1)c1ccc2nc(-c3cccs3)c(-c3cccs3)nc2c1 | 0.97 | -0.027
CN(Cc1ccccc1)C(=O)C1(S(=O)(=O)c2ccc(Cl)cc2)CC1 | 1 | 1
COc1ccc(OC)c(CCNc2ccc3nnc(-c4ccc(F)cc4)n3n2)c1 | 0.97 | -0.4
COc1ccc(NC(=O)c2ccc(C)c(NC3=NC4CS(=O)(=O)CC4S3)c2)cc1 (centres undefined) | 1 | 0.58
CC(C)c1ccc(NC(=O)Nc2cccs2)cc1 | 1 | -0.066
COc1cccc(CNC(=O)c2ccc3c(c2)NC(=O)CN3C)c1 | 1 | 0.48
O=C(Nc1ccc(Cl)c(-c2nc3ccccc3[nH]2)c1)c1cccc(I)c1 | 1 | 0.61
O=C(NCc1ccc(F)cc1)C1=CCN(S(=O)(=O)c2ccc(Br)cc2)CC1 | 1 | 1.6
COc1ccc(-n2c3c(cc(C(=O)Nc4ccc(S(N)(=O)=O)cc4)c2=O)C(=O)CC(C)(C)C3)cc1 | 1 | -0.12
O=C1CN(C(=O)c2ccccc2Br)C(c2ccccc2)c2cc(Cl)ccc2N1 (centres undefined) | 0.99 | -0.19

(listing goes on)
compound | CBX7 inh | CBX7 inh z-score
CC1CCN(S(=O)(=O)c2ccc3[nH]c(=O)cc(C(=O)NC4CCCCC4C)c3c2)CC1 (centres undefined) | 0.93 | -1.3
O=C(CC1(CC2=NS(=O)(=O)c3ccccc3N2)CCCC1)NCc1ccccc1Cl | 0.81 | -2
CCN1CCCC1CNC(=O)c1cc(Nc2ccccc2OC)nc2ccccc12 (centres undefined) | 1 | 0.83
CN(Cc1ccccc1)C(=O)c1cc(-c2ccc3c(c2)OCO3)on1 | 1 | -0.033
Cc1ccc(NC(=O)Cn2ncc3c2-c2ccccc2OC3)c(Cl)c1 | 0.99 | -0.35
Cc1oc(-c2cccc(Cl)c2)nc1CN1CCC(C(=O)NCCCN2CC(C)CC(C)C2)CC1 (centres undefined) | 2.1 | 9.6
NC(=O)C1(N2CCCCC2)CCN(C(=O)c2ccc(C#Cc3ccccc3)o2)CC1 | 0.79 | -2.9
COc1cccc(OCC(O)CN2CCOCC2)c1 (centres undefined) | 1.1 | 1.1
COc1ccc(-c2nc3cc(NC(=O)COc4cccc(C)c4)ccc3o2)cc1 | 1.1 | 3
Cc1ccccc1Cn1c(CNC(=O)Cc2ccccc2)nc2ccccc21 | 1.2 | 1.8

Seven of the entries above in order of their number in CBX7 inh z-score, low to high.
Compound	CBX7 inh z-score
CCN(c1cccc(C)c1)C(C(=O)Nc1ccc2c(c1)OCCO2)c1ccccc1 (centres undefined)	-6.4
COc1cccc(-c2nn(C)c3sc(C(=O)N4CCN(C5CCCCC5)CC4)cc23)c1	-5.4
CCOC(=O)N1CCC(Nc2c(NCCCN(C)Cc3ccccc3)c(=O)c2=O)CC1	-2.4
O=C(CC1(CC2=NS(=O)(=O)c3ccccc3N2)CCCC1)NCc1ccccc1Cl	-2
CCC(=O)N1CCc2cc(S(=O)(=O)NC(C(=O)Nc3ccc(OC)c(OC)c3)C(C)C)ccc21 (centres undefined)	-0.77
COc1ccc(OC)c(C(O)c2nccn2C)c1 (centres undefined)	1
CSCCC(Nc1ncnc2ccc(Br)cc12)C(=O)O (centres undefined)	2.2

(more compounds)
compound | CBX7 inh | CBX7 inh z-score
Cc1cc2[nH]c(=O)cc(-c3ccccc3)n2n1 | 1 | 1.7
CCOCCCN1C(=O)c2ccccc2C1C(=O)NC1CCCCCCC1 (centres undefined) | 0.55 | -16
CCOc1cc2c(cc1OCC)C(c1cc(F)ccc1F)NCC2 (centres undefined) | 1.3 | 5.1
COc1ccc(-n2c(-c3ccc(Br)cc3)nc3cc4c(cc32)OCO4)cc1 | 1.1 | 1.8
O=C(NCCCc1ccccc1)c1csc2c1CCCCC2 | 0.94 | -0.23
CCCCN(CC)CCNc1c(NC2CCN(C(=O)OCC)CC2)c(=O)c1=O | 0.84 | -1.9
COc1ccc(Cl)cc1NC(=O)Nc1cccs1 | 1 | 0.56
Cc1onc(-c2ccccc2)c1C(=O)NCCc1ccc(S(N)(=O)=O)cc1 | 1 | 0.042
O=C(COc1ccc(Cl)cc1)Nc1c(-c2ccc(F)cc2)nc2ccccn12 | 1.1 | 1.4
COc1ccc2[nH]cc(CCNC(=O)c3ccccc3Cl)c2c1 | 1.2 | 2.1

Reprinted at random: five records from the list
compound | CBX7 inh | CBX7 inh z-score
CCOc1cc2c(cc1OCC)C(c1cc(F)ccc1F)NCC2 (centres undefined) | 1.3 | 5.1
COc1ccc2[nH]cc(CCNC(=O)c3ccccc3Cl)c2c1 | 1.2 | 2.1
O=C(COc1ccc(Cl)cc1)Nc1c(-c2ccc(F)cc2)nc2ccccn12 | 1.1 | 1.4
CCCCN(CC)CCNc1c(NC2CCN(C(=O)OCC)CC2)c(=O)c1=O | 0.84 | -1.9
COc1ccc(Cl)cc1NC(=O)Nc1cccs1 | 1 | 0.56

(more compounds)
compound | CBX7 inh | CBX7 inh z-score
O=C(NCC1CCCO1)c1cc2nc(-c3ccc(Br)cc3)cc(C(F)(F)F)n2n1 (centres undefined) | 1.1 | 1.7
COc1ccccc1NC(=O)CSc1nnc(-c2c[nH]c3ccccc23)n1C | 0.89 | -1.8
CCOc1ccc2oc(-c3ccccc3)c(C(=O)N3CCN(C)CC3)c2c1 | 0.77 | -0.9
CCCCNC(=O)CCc1nc2ccccc2n(Cc2ccccc2Cl)c1=O | 0.87 | -1.4
O=C(Nc1cccc(Cl)c1)c1cnc2sccn2c1=O | 1 | 0.0082
CCOC(=O)C1=CNC2C=C3C(=CN2C1=O)CCCCN3C (centres undefined) | 0.9 | -1.6
CCn1cnc2cc(NCc3ccccc3OC)ccc21 | 0.96 | -1
COc1ccc(C2=NOC(C(=O)Nc3cccc(C(F)(F)F)c3)C2)cc1OC (centres undefined) | 1 | 0.44
O=C(NCc1cccs1)c1cc(-c2cccc(Cl)c2)on1 | 1.1 | 2.7
CCCCCCc1cc(-c2[nH]ncc2-c2ccc(Br)cc2)c(O)cc1OC | 0.58 | -0.73

Carrying on.
| mol | CBX7 inh | CBX7 inh z-score |
| --- | --- | --- |
| Cc1ccc(S(=O)(=O)C2(C(=O)NCc3ccc(F)cc3)CC2)cc1 | 1.1 | 1 |
| CC(C)c1ccccc1NC(=O)c1cc(-c2ccc(Cl)cc2)nc2ccccc12 | 1.1 | 0.18 |
| COc1ccc(C2CC(=O)C3=C(C2)Nc2ccccc2NC3c2ccccc2C)cc1 (centres undefined) | 0.89 | -1.8 |
| CCOC(=O)c1c(NC(=O)c2ccccc2OCC)sc2c1CCC(CC)C2 (centres undefined) | 1.3 | 12 |
| CCc1ccc(CNC(=O)c2cc(=O)[nH]c3ccc(S(=O)(=O)N4CCCCC4C)cc23)cc1 (centres undefined) | 0.74 | -3.1 |
| CC1CCCCN1C(=O)Cn1nc(Cc2ccncc2)c2ccccc2c1=O (centres undefined) | 1.1 | 2.2 |
| COc1cccc(CNC(=O)C2(S(=O)(=O)c3ccc(Cl)cc3)CC2)c1 | 1 | 0.8 |
| Cc1ccc2c(c1)NC(=O)C(CC(=O)Nc1cccc(Cl)c1C)O2 (centres undefined) | 1 | 0.64 |
| Cc1ccc(N(CC(=O)Nc2cc(C)[nH]n2)S(=O)(=O)c2cccnc2)cc1 | 0.92 | -1.3 |
| COc1ccc(NC(=O)C2CCN(S(=O)(=O)c3cccnc3)CC2)cc1 | 0.99 | -0.15 |
| Cc1sc2nc[nH]c(=O)c2c1S(=O)(=O)N1CC(C)CC(C)C1 (centres undefined) | 0.95 | -0.18 |
| c1csc(CNc2ccc(-c3nc4ccccc4s3)cc2)c1 | 1.2&1.6 | 3.9&2.7 |
| COc1ccc(-c2cc3cc(OC)c(OC)cc3c(Cc3ccccc3)n2)cc1 | 1 | 1.1 |
| FC(F)(F)c1cc(-c2ccccc2)nc(NCCc2ccccc2)n1 | 1.5 | 5.2 |
| CCCOc1ccc(-c2cc(C)nc(-c3ccc(OCCC)cc3)c2)cc1 | 1.3 | 4.1 |
| CCCCOc1ccc(Nc2cc(C)nc3ccc(OC)cc23)cc1 | 0.75 | -0.3 |
| COC(=O)c1c(NC(=O)C(C)Oc2ccc(Cl)c(C)c2)sc2c1CCCC2 (centres undefined) | 0.96 | -0.51 |
| CCOC(=O)Cn1c(=O)n(Cc2ccc(OC)cc2)c(=O)c2cccnc21 | 0.99 | -0.2 |
| CC(=O)N1CCC(N(C(=O)Nc2ccc(Cl)c(Cl)c2)C2CCCCC2)CC1 | 0.91 | -1.5 |
| CCC(C)NC(=O)CCn1nc(-c2ccc(Cl)cc2)ccc1=O (centres undefined) | 0.96 | -1.2 |
| Clc1cc(Br)ccc1OCc1nc(-c2cccnc2)no1 | 0.94 | -1.1 |
| COc1cccc(-n2ccnc2SCC(=O)Nc2ccc(F)cc2F)c1 | 0.65 | -0.46 |
| COc1ccc(Nc2cc(C)nc3ncnn23)cc1Cl | 0.99 | -0.17 |
| Fc1cccc(Cl)c1Cc1noc(Cc2c(F)cccc2Cl)n1 | 1.2 | 1.1 |
| COc1cc(Nc2nc(-c3ccc(CC(C)C)cc3)cs2)c(OC)cc1Cl | 0.48* | -5.7* |
| CCc1ccc(NC(=O)C2CCN(S(=O)(=O)c3cccs3)CC2)cc1 | 0.98 | -0.38 |
| Cn1c2ccccc2c2c(C(=O)N3CCOCC3)cn(C3CCCC3)c(=O)c21 | 1 | 0.69 |
| COc1ccccc1Nc1cc(C(=O)NCCc2ccccc2)c2ccccc2n1 | 1.3 | 0.27 |
| COc1ccc2nc(NC(=O)CSc3nc4cc(Cl)ccc4s3)sc2c1 | 1.2 | 1.8 |
| Cc1cc(C)nc(NS(=O)(=O)c2ccc(NC(=O)c3ccc(C(C)(C)C)cc3)cc2)n1 | 0.99 | -0.0082 |

(continued)
| mol | CBX7 inh | CBX7 inh z-score |
| --- | --- | --- |
| CC(Cc1c[nH]c2ccccc12)NC(=O)c1ccncc1 (centres undefined) | 0.96 | -1 |
| CCCCN(C)CCNC(=O)Cn1ncc2c1-c1cc(C)ccc1OC2 | 1.1 | 2.6 |
| COc1ccc(-n2c(=O)cc(N3CCN(c4ccc(F)cc4)CC3)[nH]c2=O)cc1 | 1 | 0.75 |
| Cc1ccc(-c2noc(CN(C(=O)COc3ccc(C(C)C)cc3)C(C)C)n2)cc1 | 0.89 | -1.1 |
| COc1cc2c(cc1OC)-c1nnc(-c3cccs3)n1C(C)(C)C2 | 1 | 0.34 |
| CC1CCCC(NC(=O)C2(C)CCC(=O)N2CCc2ccccc2)C1C (centres undefined) | 1.2 | 1.6 |
